Cruzain noTriton: blocks cruzain activity in detergent-free assay; P25779; purified cruzain, Z-FR-AMC fluorescence, no detergent; Potency, µM, for inactives: max response, negative = inhibition, actives largely listed as inhibitors; actives 2.3% (n = 200,000); AID 1476; active = well fitted curve in the direction sought with a large enough effect; inconclusive = small, poorly fitted or top-dose-only effect, or another doubt; inactive = no such curve, though single readings can be large; an effect the other way counts as inactive or inconclusive;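 also: plate controls were enzyme without inhibitor for no effect and buffer without enzyme for full effect; nearly all actives have a fitted effect of over 40% in size; top concentration of the series not given in the record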
Target sequence (P25779 123-467 limits assumed): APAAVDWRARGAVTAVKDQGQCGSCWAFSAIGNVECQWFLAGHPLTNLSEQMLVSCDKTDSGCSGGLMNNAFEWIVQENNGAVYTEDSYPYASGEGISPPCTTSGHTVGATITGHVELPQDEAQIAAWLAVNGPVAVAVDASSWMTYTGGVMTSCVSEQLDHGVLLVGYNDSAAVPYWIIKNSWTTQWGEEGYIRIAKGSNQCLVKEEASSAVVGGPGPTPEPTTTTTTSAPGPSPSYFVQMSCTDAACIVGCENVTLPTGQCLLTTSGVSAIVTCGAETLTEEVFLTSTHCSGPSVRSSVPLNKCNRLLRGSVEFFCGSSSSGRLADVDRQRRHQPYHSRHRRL
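Detergent-free condition (0.00005% Triton X-100) in acetate buffer pH 5.5 with DTT. 1.5 nM enzyme and compound were pre-mixed 15 min, then 2 uM Z-FR-AMC substrate added; reaction progress from fluorescence change between first and third reads (60 s).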
NS1 function inh: blocks influenza NS1 protein function; S. cerevisiae slowed by influenza A NS1, growth recovery by OD600; Potency, µM (highest dose often 46.1 µM), inactives show top-dose activity, positive = more growth; actives 0.4% (n = 270,000); AID 2326; also: actives are rising curves; nearly all actives have a fitted effect of over 50% in size
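Growth recovery, yeast-based: influenza A NS1 expressed in S. cerevisiae causes slow growth, and suppressors are detected by OD600. The parent strain without NS1 is used as positive control.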
RE007 growth inh: less growth of the S. pombe RE007 Vpr strain; S. pombe RE007 Vpr strain, BacTiter-Glo ATP luminescence, 24 h; control for the full effect not named in the record; Potency, µM (highest dose often 92.2 µM), for the others: at the top dose activity change, negative = less growth; actives 0.21% (n = 360,000); active = well fitted falling curve with a large enough effect; inconclusive = small, poorly fitted or top-dose-only effect; inactive = no such curve, though single readings can be large or run the other way;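 also: % is scaled to controls: 0 for no effect and ±100 for the full control effect; nearly all actives have a fitted effect of over 50% in size; the assay follows cell death caused by Vpr and the record does not say whether a fall means rescue or toxicity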
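Fission yeast strain RE007, carrying one chromosomally integrated HIV-1 vpr copy, was seeded at OD 0.01 in PMG+AL medium with 23 nL pinned compound. After 24 h at 30 °C and 99% humidity, viability was read by BacTiter-Glo luminescence.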
StopGo reporter: lowers the luciferase signal of an FMDV 2A StopGo reporter. actives 1.2% (n = 410,000). Potency, µM (doses to about 57.9 µM), without a hit: top-dose signal change, negative = less light. human cells with a luciferase reporter of 2A StopGo recoding; control for the full effect not named in the record; active = well fitted falling curve with a large enough effect; inconclusive = small, poorly fitted or top-dose-only effect; inactive = no such curve, though single readings can be large or run the other way; tested in HEK293T cells; also: % is scaled to controls: 0 for no effect and ±100 for the full control effect; nearly all actives have a fitted effect of over 45% in size; luciferase light after 4 h
SARS PLP yeast: blocks SARS-CoV papain-like protease in a yeast assay. actives 0.19% (n = 330,000). Potency, µM (titrated, usually from 32.9 µM), for the others: top-dose activity, positive = growth rescue. S. cerevisiae expressing SARS-CoV PLpro, growth rescue; control for the full effect not named in the record; also: 0% is about no effect; nearly all actives have a fitted effect of over 55% in size; growth read by luminescence after 48 h
LASV entry inh: blocks Lassa virus binding to or entry into cells; AID 540256; actives 1.2% (n = 300,000); Potency, µM (top dose mostly 37.9 µM), without a hit: at the highest dose activity change, negative = inhibition, most hits filed as inhibitors; Lassa virus pseudotype entry inhibition, cell reporter; control for the full effect not named in the record; active means well fitted inhibition curve with a large enough effect; inconclusive means small, poorly fitted or top-dose-only effect, or effect the other way; inactive means flat fitted curve, though single readings scatter; tested in HEK293 cells; also: % is scaled to controls: 0 for no effect and ±100 for the full control effect; nearly all actives have a fitted effect of over 50% in size; luciferase read-out
MARV entry inh: Marburg virus entry inhibition. Potency, µM (doses to about 37.8 µM), inactives show at the top dose activity change, negative = inhibition, actives largely listed as inhibitors. Marburg virus pseudotyped entry inhibition, cell reporter; control for the full effect not named in the record; about a third of the inactives were read at about 46 µM. actives 1.8% (n = 300,000); active = well fitted inhibition curve with a large enough effect; inconclusive = small, poorly fitted or top-dose-only effect, or effect the other way; inactive = flat fitted curve, though single readings scatter; tested in HEK293 cells; about a fifth of its hits are not listed in these tables; also: % is scaled to controls: 0 for no effect and ±100 for the full control effect; luciferase read-out
Cruzain inh Det: cruzain (T. cruzi) inhibition with detergent. purified cruzain, Z-FR-AMC fluorescence, 0.01% Triton. Potency, µM, for the others: max response, negative = inhibition, usual class: inhibitors. actives 0.43% (n = 200,000); active = well fitted curve in the direction sought with a large enough effect; inconclusive = small, poorly fitted or top-dose-only effect, or another doubt; inactive = no such curve, though single readings can be large; an effect the other way counts as inactive or inconclusive;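 also: plate controls were neutral wells for no effect and buffer without enzyme for full effect; nearly all actives have a fitted effect of over 40% in size; top concentration of the series not given in the record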
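Sodium acetate buffer (100 mM, pH 5.5) containing 5 mM DTT and 0.01% Triton X-100 hosted 1.5 nM cruzain and test compound for 15 min at room temperature. Cleavage of 2 uM Z-FR-AMC was then tracked by fluorescence.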
The depositor's hits bear a star; ? = inconclusive; . = not tested or not shown; & = joins results of further samples; [ ] = another dose, or the depositor's remark. Unless noted, calls follow the shape of the dose curve; as a rule, active means well fitted rising curve with a large enough effect; inconclusive means small, poorly fitted or top-dose-only effect; inactive means no such curve, though single readings can be large or run the other way. Potency is read from the fitted curve at half-maximal effect.

SMILES | LASV entry inh | StopGo reporter | Cruzain inh Det | MARV entry inh | NS1 function inh | Cruzain noTriton | RE007 growth inh | SARS PLP yeast
COc1ccc(C(CCN2CCN(c3ccccc3)CC2)c2c(OC)cc(OC)c3c(-c4ccccc4)cc(=O)oc23)cc1 (centres undefined) | . | 21% | . | . | 9% | . | 3% | 1%
O=C(COC(=O)c1cc2ccccc2cc1O)NC(=O)NCc1ccco1 | 8% | -7% | . | 18%[14.2 µM] | . | . | 6% | 0%
Nc1ccc2nc(COc3ccccc3)[nH]c2c1 | . | 29% | . | . | -6% | . | -4% | -6%
Cc1ccc(NC(=S)N(CCN(C)C)Cc2cc3cc(C)ccc3[nH]c2=O)cc1 | ? | -19% | . | ? | 2% | . | -3% | 0%
Cc1sc2ncn(CC(=O)Nc3ccccc3F)c(=O)c2c1-c1ccccc1 | -17% | -24% | . | ? | . | . | 14% | 0%
O=C1CC(c2ccccc2)CN1C(=O)c1cccc([N+](=O)[O-])c1 (centres undefined) | 23% | -20% | -4.1% | ? | 6% | -4% | -10% | -11%
CCOc1ccc(-c2cc(C(=O)N/N=C(\C)c3cccnc3)c3ccccc3n2)c(OCC)c1 | ? | 8% | . | 4µM* | -2% | . | 10% | ?
COc1ccccc1NC(=O)c1ccccc1NC(=O)c1ccccn1 | -32% | -10% | . | ? | . | . | -8% | -3%
FC(F)Oc1ccc(NC(=S)NNc2ccnc3cc(Cl)ccc23)cc1 | ? | ? | . | 11µM* | . | . | -8% | 0%
CCOc1cc2[nH]c(=S)n(CCCOC)c(=O)c2cc1OCC | -19% | 10% | -1.6% | -9% | -3% | 9% | 4% | -1%
Nc1cc(=O)[nH]c(SCC(=O)Nc2cccc([N+](=O)[O-])c2)n1 | . | 11% | . | . | -6% | . | 14% | -1%
Cc1cccc(CCNCc2cc3cc(C)cc(C)c3[nH]c2=O)c1 | . | -17% | . | . | 8% | . | -18% | 1%
COc1ccc([C@@H]2OC2(C(N)=O)C(N)=O)cc1 | . | -11% | . | . | 9% | . | 8% | -2%
CCOc1ccc(-c2cc3c(=O)n(Cc4nc(-c5ccccc5OCC)oc4C)ccn3n2)cc1Cl | -10%[46.1 µM] | 2% | -2.4% | -3%[46.1 µM] | . | 8% | . | .
Cc1ccc(C2=Nc3ccccc3N(CC(=O)Nc3ccccc3F)C(=O)C2)cc1C | ? | 11% | -7.8% | . | . | -21% | . | .
Cc1ccccc1CSc1nc2c([nH]c3ccccc32)c(=O)n1C | ? | -3% | -1.6% | . | . | -3% | . | .
CCCCc1nnc2c(N(C)S(=O)(=O)c3ccc(C)cc3)nc3ccccc3n12 | 26% | -7% | . | 4%[46.1 µM] | -2% | . | 4% | 0%
O=C(CN(c1ccc(F)cc1)S(=O)(=O)c1ccc2c(c1)OCCO2)Nc1ccccc1 | -9% | 28% | -0.3% | -4% | 9% | 0% | 1%[3.69 µM] | 4%
COc1ccc(C(=O)Nn2cnc3scc(-c4cccs4)c3c2=O)c(O)c1 | -9% | -23% | 1.2% | ? | -55% | -9% | 29% | -5%
O=C(Nc1ccccc1)c1ccc(CN2CCC(Cc3ccccc3)CC2)cc1 | -8% | ? | . | ? | . | . | 8% | .
COc1ccc(OCC(=O)N2CCc3ccccc3C2)cc1 | . | 30% | . | . | -16% | . | 1% | 2%
COc1ccc(C(=O)N2CCN(C(=O)c3cc(OC)c(OC)c(OC)c3)CC2)cc1 | 16% | -10% | 0.5% | 17%&17%[46.1 µM] | 2% | 3% | 7% | 3%
O=C(CSc1nc2[nH]c(=O)cc(O)c2s1)Nc1cc(Cl)cc(Cl)c1 | 10% | -12% | . | ? | 17% | . | -9% | 3%
COc1ccccc1C1CC(=O)Oc2cc(O)ccc21 (centres undefined) | . | -19% | -2.1% | . | . | -13% | -2% | 9%
OCCOCCN1CCN(C(=S)Nc2ccccc2)CC1 | 4% | -9% | . | -4% | 3% | . | 13% | 0%
Cn1c(=O)c(=O)n(C)c2cc(S(=O)(=O)NCCOc3ccccc3)ccc21 | ? | -18% | . | 1%[46.1 µM] | 2% | . | 0% | 2%
CCc1cc(=O)oc2c(C)c(OCC(=O)NCC3CCC(C(=O)O)CC3)ccc12 (centres undefined) | . | -15% | . | . | 12% | . | 7% | 7%
COc1ccc(CN2CC(C(=O)NCc3ccc4c(c3)OCO4)CC2=O)cc1 (centres undefined) | 0% | -11% | 1.3% | -15% | -6% | 1% | -1% | 14%
O=C(Cn1cnc2sc(-c3ccccc3)cc2c1=O)NCc1ccccc1 | ? | 25% | 1.4% | ? | -6% | 16µM* | 0% | 2%
CCOC(=O)C1CCN(C(=O)c2ccc(S(=O)(=O)Nc3ccccc3Cl)cc2)CC1 | ? | -5% | . | -17% | . | . | -8% | -2%
Cn1c(COc2ccccc2)nnc1SCC(=O)NNC(=O)C1CCCCC1 | 1% | 2% | . | 27%[46.1 µM] | 0% | . | 1% | 1%
S=C(Nc1cccc2ccccc12)NN1CCCCCC1 | -3% | -5% | . | ? | . | . | 3% | .
N#Cc1ccc(NC(=O)c2sc3cc(C(F)(F)F)cnc3c2-c2cccs2)cc1 | -9% | ? | -4.9% | 0% | 14% | -25% | 3% | -6%
CSc1ccc(CCNC(=O)c2cc(C)nc3c2c(C)nn3-c2cccc(F)c2)cc1 | 24%[46.1 µM] | 35%[activator] | -0.4% | . | . | -10% | . | .
Cc1ccc2c(CC(=O)Nc3c(C(=O)c4ccc(F)cc4)oc4ccccc34)coc2c1 | -12%[46.1 µM] | 26% | -1.9% | 2%[46.1 µM] | . | -22% | . | .
CCc1cccc2c1NC(=O)C2(O)N1CCCC(C)C1 (centres undefined) | 10% | 28% | . | 13% | 0% | . | 2% | 2%
COC(=O)c1ccc(CNC(=O)c2ccc(S(=O)(=O)N3CCCC(C)C3)cc2)cc1 (centres undefined) | 3% | -12% | . | -20% | . | . | 8% | 5%
Cc1ccc(NC(=O)CNC(=O)c2ccc(Br)o2)nc1 | 0% | -1% | . | ? | . | . | 10% | 1%
COc1ccc(-n2c(Cc3cccn3C)nnc2SCC(=O)Nc2ccc(C)cc2)cc1 | 2% | 6% | -6.3% | -8%&-8% | 2% | 19% | 5% | 3%
Cc1c(C)n2c(SCC(=O)Nc3ccc4c(c3)OCCO4)nnc2[nH]c1=O | 3% | -15% | . | 9%[46.1 µM] | . | . | 5% | 4%
CCOC(=O)c1c(C)[nH]c(N=Nc2cccc(C)c2)c1C | 17% | . | -5.3% | ? | 9% | ? | ? | -23%
Cc1ccc(S(=O)(=O)N2CC3CCCN3c3ccc(C(F)(F)F)cc32)cc1 (centres undefined) | ? | 7% | -0.1% | ? | 17% | -10% | -9% | 3%
Cc1cc(C(=O)N/N=C/c2cccc(OC(=O)c3ccco3)c2)n[nH]1 | 6% | 14% | -0.6% | ? | 7% | -6% | -22% | 2%
O=C(COc1ccc2ccccc2c1)Nc1cccc(C(=O)Nc2ccccc2C(=O)O)c1 | -5% | -15% | 32µM* | -8% | -25% | ? | 25% | -66%
CSCCC(NS(=O)(=O)c1ccc2c(c1)oc(=O)n2C)C(=O)NCc1ccc(F)cc1 (centres undefined) | 16%[46.1 µM] | -12% | 0.4% | ? | . | -4% | . | .
O=C(CNC(=O)N1CC(=O)Nc2ccccc21)NCc1ccccc1 | . | -9% | . | . | -1% | . | 6% | -2%
COc1ccc(NC(=S)N(Cc2ccc(Cl)cc2)Cc2ccc(C(=O)O)cc2)cc1Cl | -27% | -8% | . | 1% | . | . | 1% | 0%
Cc1ccc(O)c(C(=O)c2cnc3c(c2)COc2ccccc2-3)c1 | 5% | -28% | -4.3% | 20%[46.1 µM] | -26% | -5% | 6% | -51%
COc1ccc(NC(=S)N(CCC(C)C)C2CCN(C(C)=O)CC2)cc1 | . | 27% | . | . | 3% | . | 12% | 1%
CCOC(=O)c1c(NC(=O)Cc2ccccc2)sc2c1CCN(CC)C2 | . | -17% | . | . | 4% | . | 0% | -12%

The listing continues:
SMILES | LASV entry inh | StopGo reporter | Cruzain inh Det | MARV entry inh | NS1 function inh | Cruzain noTriton | RE007 growth inh | SARS PLP yeast
CCC(C)NC(=O)C1CCCN(C(=O)NC2CCCCC2)C1 (centres undefined) | 16% | 1% | 0.8% | 17% | 3% | -1% | 9% | 2%
c1ccc(-c2nnc(SCC3CCCCO3)nc2-c2ccccc2)cc1 (centres undefined) | ? | -21% | . | ? | . | . | -8% | -9%
COc1ccc(C(=O)NC(C)c2nc3ccccc3n2C)cc1OC (centres undefined) | 4% | 0% | -0.7% | 5% | -6% | -5% | 5% | 3%
CN(C)CCN1C(=O)C(=O)/C(=C(/O)c2ccc(OCc3ccccc3)cc2)C1c1ccncc1 (centres undefined) | 8% | 0% | 1.4% | 1%&1% | 1% | -9% | 0% | -1%
CCc1ccc(C(=O)Nn2c(C)nc3ccccc3c2=O)cc1 | . | 4% | . | . | -2% | . | 25% | 0%
O=C(c1ccc2c(Cl)c3c(nc2c1)CCCC3)N1CCN(c2ccc(Cl)cc2)CC1 | 3%[46.1 µM] | -11% | 3.3% | 7%[46.1 µM] | . | -7% | . | .
Cc1cccc(Cn2ccn(Cc3ccc(Cl)cc3)c(=O)c2=O)c1 | 0%[46.1 µM] | -2% | -1.6% | . | . | ? | . | .
O=C(NC(=O)N1CCN(c2cccc(Cl)c2)CC1)c1ccc(Cl)cc1 | -1% | 4% | . | ? | -38% | . | -21% | -11%
Cc1ccc(CNC(=O)C(=O)NCC(c2cccs2)S(=O)(=O)c2ccccc2)cc1 (centres undefined) | ? | -23% | -0.2% | . | . | -13% | . | .
COc1ccccc1NC(=O)CSc1nnnn1-c1ccccc1F | . | -12% | . | . | 21% | . | -5% | 6%
Cc1cc(Nc2cc(C(=O)O)ccc2C)n2ncnc2n1 | . | -1% | 4.4% | . | -1% | 3% | 9% | 4%
CCOC(=O)C1CCN(C(c2cccc(F)c2)c2c(O)cc(C)n(CCOC)c2=O)CC1 (centres undefined) | -10%[46.1 µM] | -19% | 3.1% | . | . | 8% | . | .

Screening results as filed in PubChem.
